High-throughput results deposited in PubChem by Johns Hopkins Ion Channel Center.
KCNQ2 inh – KCNQ2 potassium channel inhibitors, primary screen, cell-based, CHO-K1, FluxOR thallium flux, B-score (AID 2156). 1.1% of 310,000 active. 20 min; stronger effect = lower value; only compounds with negative scores are shown here; some inactives read as strong as hits. Potassium voltage-gated channel subfamily KQT member 2 (Rattus norvegicus), O88943. B-score at 10 µM;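 active = fluorescence ratio B-score at most minus 3 library SDs, with starting brightness B-score within 2 library SDs, cut at about -5.5 in these data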
Target sequence (O88943 whole entry, looked up): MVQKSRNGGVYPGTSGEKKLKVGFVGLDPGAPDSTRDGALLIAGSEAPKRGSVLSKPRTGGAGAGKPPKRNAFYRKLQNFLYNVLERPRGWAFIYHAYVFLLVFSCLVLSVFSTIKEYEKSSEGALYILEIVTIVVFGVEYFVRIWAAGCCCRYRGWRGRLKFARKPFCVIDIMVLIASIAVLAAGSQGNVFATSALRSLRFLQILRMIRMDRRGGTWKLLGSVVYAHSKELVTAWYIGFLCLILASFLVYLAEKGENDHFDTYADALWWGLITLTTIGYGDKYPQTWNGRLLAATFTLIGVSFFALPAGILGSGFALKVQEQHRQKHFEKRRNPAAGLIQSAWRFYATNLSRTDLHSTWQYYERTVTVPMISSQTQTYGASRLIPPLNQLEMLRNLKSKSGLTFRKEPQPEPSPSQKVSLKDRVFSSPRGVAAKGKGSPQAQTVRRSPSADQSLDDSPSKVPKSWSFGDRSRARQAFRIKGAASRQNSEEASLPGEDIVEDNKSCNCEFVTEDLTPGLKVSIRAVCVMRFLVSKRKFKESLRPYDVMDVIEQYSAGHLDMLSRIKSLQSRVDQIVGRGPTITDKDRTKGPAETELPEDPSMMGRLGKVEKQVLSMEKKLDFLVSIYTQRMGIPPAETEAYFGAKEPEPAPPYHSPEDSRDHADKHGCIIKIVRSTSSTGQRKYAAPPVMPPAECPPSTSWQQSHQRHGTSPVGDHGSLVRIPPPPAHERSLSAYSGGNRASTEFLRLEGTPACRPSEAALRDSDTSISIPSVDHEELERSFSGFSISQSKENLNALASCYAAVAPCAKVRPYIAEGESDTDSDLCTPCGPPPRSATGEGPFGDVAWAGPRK
KCNQ2 inh baseline – also measured in KCNQ2 inh; calls as there; B-score; measured here: initial fluorescence intensity artifact check;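 brightness before thallium and not channel activity; 0 = typical well and far values either way flag optical interference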
* hit, by the source's call; i = inactive. The list is partial, so the mix of outcomes need not match the whole.

SMILES	KCNQ2 inh	KCNQ2 inh baseline
O=C(CSc1nnnn1-c1ccccc1)Nc1ccc(Cl)cc1	i	0.54
O=C(CN(Cc1ccc(F)cc1)S(=O)(=O)c1ccccc1)N1CCCCC1	i	-0.74
Cc1ccc(CNC(=O)c2ccccc2NC(=O)CSc2nnnn2C)cc1	i	0.89
CN(CCOc1ccccc1)C(=O)C1CCN(C(=O)c2ccc(F)cc2)CC1	i	0.06
COc1nc(NCc2ccco2)nc(NC2CCCCC2)n1	i	3.1
COc1ccc(C(=O)C[n+]2ccc(C)cc2)cc1	i	1.4
CCc1nnc(NC(=O)CCC(=O)Nc2ccccc2)s1	i	-0.03
COCCN(CC(=O)NCc1ccc2c(c1)OCO2)C(=O)CCC(=O)Nc1nccs1	i	0.65
CSc1nc(C)c(C(=O)Nc2ccccc2)c(-c2ccco2)c1C#N	i	-0.5
O=C(/C=C/c1ccco1)Nc1ccccc1N1CCCCC1	i	1.4
O=C(/C=C/c1cc([N+](=O)[O-])ccc1OC(F)F)NCc1ccc(Cl)cc1	i	-1.4
Cc1cc(OCC(=O)Nc2ccc(N3CCN(C(=O)c4ccco4)CC3)cc2)cc(C)c1Cl	i	-0.31
O=C(NCc1ccc2c(c1)OCO2)c1cc2n(n1)C(C(F)(F)F)CC(c1ccc3c(c1)OCO3)N2 (stereo not given)	i	-0.28
Cc1ccc(C(=O)CC(C(=O)O)n2cccn2)cc1 (stereo not given)	i	-0.12
COc1cc(NC(=O)c2ccc3c(c2)OCO3)ccc1NC(=O)c1cccs1	i	0.02

Looked up one by one from above (2):
SMILES	KCNQ2 inh	KCNQ2 inh baseline
O=C(CSc1nnnn1-c1ccccc1)Nc1ccc(Cl)cc1	i	0.54
COc1ccc(C(=O)C[n+]2ccc(C)cc2)cc1	i	1.4

Continued:
SMILES	KCNQ2 inh	KCNQ2 inh baseline
Cc1ccc(S(=O)(=O)N(C)/C(=N/S(=O)(=O)c2ccccc2)c2ccccc2)cc1	i	-0.54
Cc1cccc(OCC(=O)O/N=C(\N)c2ccccn2)c1C	i	-1.9
CN1CCN(c2ccc(Cl)cc2NC(=O)c2cccc(S(=O)(=O)N(C)C)c2)CC1	i	0.07
C=CCOc1cc(C)nc(-c2ccccc2O)n1	i	-0.01
O=S(=O)(/C=C/c1ccccc1)N1CCN(c2cccc(Cl)c2)CC1	i	-0.9
COc1ccc(C2CC(c3ccccc3)=NN2S(=O)(=O)c2ccccc2)c(OC)c1 (stereo not given)	i	-1.1
CCOC(=O)C1=CCN(Cc2ccccc2)CC1	i	-0.06
CCCC1S/C(=N/N=C/c2cccs2)NC1=O (stereo not given)	i	0.15
O=c1c(-c2n[nH]c(=S)o2)cccn1Cc1ccccc1	i	-0.42
CC(=O)c1ccccc1NC(=O)CCCNC(=O)c1ccc(Cl)cc1	i	2.3
CCOC(=O)CSc1nc2ccccc2c(=O)n1Cc1ccco1	i	-0.96
CN(C)/C=C1\C(=O)NN=C1C(F)(F)F	i	0.42
Cc1ccc(CNC(=O)c2sccc2-n2cccc2)cc1	i	0.57
CN(C)C(=O)OCC1COc2ccccc2O1 (stereo not given)	i	1.9
CC(=O)c1ccc(N2CCN(c3ccc(C(F)(F)F)cn3)CC2)cc1	i	-0.34

The last 4 entries of the part above come first, to join the parts:
SMILES	KCNQ2 inh	KCNQ2 inh baseline
CN(C)/C=C1\C(=O)NN=C1C(F)(F)F	i	0.42
Cc1ccc(CNC(=O)c2sccc2-n2cccc2)cc1	i	0.57
CN(C)C(=O)OCC1COc2ccccc2O1 (stereo not given)	i	1.9
CC(=O)c1ccc(N2CCN(c3ccc(C(F)(F)F)cn3)CC2)cc1	i	-0.34
c1ccc(OCCOc2cccc3cccnc23)cc1	i	0.81
O/N=C/c1ccccc1Oc1ccc(Cl)cc1	i	-1.6
COCCSc1nc(N)c2c3c(sc2n1)CN(C)CC3	i	3.6
Cc1c(Cl)cccc1NC(=S)N(CCCN1CCOCC1)Cc1cccs1	i	0.01
COc1cc(OC)cc(C(=O)NCC(=O)OCc2csc(-c3ccccc3)n2)c1	i	1.4
COc1cc(S(=O)(=O)Nc2cccc(C)c2)ccc1NC(=O)c1cccnc1	i	0.37
Cc1ccc(Cn2nc3c4cc(F)ccc4n(Cc4ccc(F)cc4)cc-3c2=O)cc1	i	0.74
COc1ccc(OCC(=O)NNC(=O)c2ccccn2)cc1	i	-0.18
CCC1C(=O)NCCN1Cc1nc(-c2ccc(C)s2)oc1C (stereo not given)	i	0.1
Nc1nnnn1CC(=O)N/N=C/c1ccccn1	i	-0.94
CCOC(=O)N1CCC(NC(=O)C2=CCN(S(=O)(=O)c3ccc(OC)cc3)CC2)CC1	i	1.9
COc1ccc(CC(=O)Nc2cccc(C(=O)Nc3cccc(C)c3)c2)cc1	i	1.8
CS(=O)(=O)c1cccc(-c2nnc(NC(=O)C3=COCCO3)o2)c1	i	0.68
Cc1cccc(NC(=O)c2ccc(COc3ccccc3)o2)n1	i	-1.5
Nc1nc(CSC(=S)N2CCOCC2)nc(Nc2ccccc2)n1	i	-1.1
CC(C)CC(NC=C1C(=O)OC(C)(C)OC1=O)C(=O)O (stereo not given)	i	1.5
CC(=O)Nc1ccc(NC(=O)C/C(C)=N/NC(=O)c2cccc3ccccc23)cc1	i	1.5
Cc1ccn(CC(=O)N2CCCC(N3CCN(c4cccc(Cl)c4)CC3)C2)n1 (stereo not given)	i	0.17
COc1ccc(C)cc1NC(=O)C(OC(=O)c1ccc(Cl)c(S(=O)(=O)N(C)c2ccccc2)c1)c1ccccc1 (stereo not given)	i	1.4
CN(C)/C=N/C(=S)Nc1ccc(Cl)cc1Cl	i	-0.79
Cc1cc(N=Nc2ccc(C)c(N=Nc3cc(C)c(N)cc3N)c2)c(N)cc1N	i	-1.2
O=C(Oc1c(CN2CCOCC2)cc(Cl)c2cccnc12)c1ccccc1Cl	i	-0.71
CCOC(=O)C1(Cc2ccccc2C(F)(F)F)CCN(C(C)CCn2cccn2)CC1 (stereo not given)	i	-0.32
COc1cc(NC(=S)NC(=O)c2ccccc2F)ccc1NC(=O)c1cccs1	i	0.01
CCOC(=O)Cc1csc(N/N=C\c2cccc(Br)c2)n1	i	1.9
CCOC(=O)N1CCC(N2Cc3cccc(C(=O)Nc4ccc(F)cc4)c3C2=O)CC1	i	-0.93
COc1ccc([C@@H]2[C@@H]3C(=O)N(C(C)(C)C)C(=O)[C@@H]3[C@]3(C)C(=O)N(c4cccc(F)c4)C(=O)N23)cc1	i	-0.77
CCCOC(=O)C(C)n1c(-c2ccccc2)nc2ccccc2c1=O (stereo not given)	i	-0.19
O=C(/C=C/c1ccccc1)C1=C(O)C(=O)N(CCO)C1c1ccc2c(c1)OCO2 (stereo not given)	i	0.8
CCCCn1nc(C(=O)N[C@@H](CCSC)c2nc3ccccc3[nH]2)c2ccccc2c1=O	i	0.94
c1ccc(CCc2nc3ccccc3[nH]2)cc1	i	0.91
N/C(=N\OC(=O)Cc1ccc(-c2ccccc2)cc1)c1cccnc1	i	-0.01
CN=C1SC(C(=O)O)CC(=O)N1C (stereo not given)	i	0.94
CC(NCc1ccc(S(N)(=O)=O)cc1)C(=O)Nc1cc([N+](=O)[O-])ccc1Cl (stereo not given)	i	-0.67
O=C(c1ccncc1)c1ccc(Br)cc1	i	-0.1
Cc1ccc(O)c(C(=O)c2cnc3c(c2)c(-c2ccc(F)cc2)c(C#N)c(=O)n3C)c1	i	0.49
O=C1c2ccccc2C(Nc2ccc3c(c2)OCO3)N1Cc1ccco1 (stereo not given)	i	-0.45
CCOC(=O)c1ccc(NC(=S)N(CCCN2CCN(C)CC2)Cc2cccs2)cc1	i	1.1
COc1ccc(Nc2nc(N3CCCC3)nc(N3CCCC3)n2)c(OC)c1	i	1.3
O=C(N/N=C/c1ccccc1O)c1ccncc1	i	-0.5
Cc1ccc(C(c2nnnn2C(C)(C)C)N(Cc2ccco2)Cc2cccs2)cc1 (stereo not given)	-6.2*	-0.17*
O=C(COC(=O)CCOc1ccccc1)NCCc1ccccc1	i	0.67
CCOc1ccccc1/C=C/C(=O)NCC(=O)N1CCC(N(C)C2CCCCC2C)CC1 (stereo not given)	i	0.36
Cc1ccccc1NC(=O)CCCn1nc(C)c2c(C)n(-c3ccccc3)nc2c1=O	i	0.2
OCCN1CCN(c2cc(C(F)(F)F)nc3ccccc23)CC1	i	-0.31
Cc1ccc(NC(=S)NNC(=S)Nc2ccc(C)cc2C)cc1	i	-0.73
Cc1ccccc1C(=O)Nc1ccc(C(=O)N/N=C/c2ccc(O)cc2)cc1	i	0.81
CC(C)(C)OC(=O)N1CCC[C@H]1c1nnc(SCc2ccc(Cl)cc2Cl)o1	-7.2*	-0.53*
CCC(=O)NC(=S)Nc1ccc(NC(=O)COc2ccccc2)cc1	i	1.2
COc1ccc(Nc2nc(N)c([N+](=O)[O-])c(NCc3ccccc3)n2)cc1	i	-1.9
Cc1noc(C)c1S(=O)(=O)Nc1cccc(CO)c1	i	2.3
CCCN1C(=O)/C(=c2\sc3nc(=O)c(Cc4ccc(C)cc4)nn3c2=O)c2ccccc21	i	2.3
CCCn1c(NC(=O)c2ccccc2Br)nc2ccccc21	i	-0.99
O=C(CCNC(=O)N1CCn2c1nc1ccccc12)NCc1ccccc1Cl	i	0.75
COc1ccc(N(C)C(=O)c2cn(C)c(=O)c3cc(OC)c(OC)cc23)cc1	i	-0.04
CC(C)c1ccc2c(c1)CCC1C(C)(CN)CCCC21C (stereo not given)	i	0.28
CCC(C)NC(=O)C1CCC(CNS(=O)(=O)c2ccc3c(c2)CC(C)N3C(C)=O)CC1 (stereo not given)	i	0.01
Cc1ccc(-c2nc3ccccc3[nH]2)cc1NC(=O)c1sc2ccccc2c1Cl	i	1.5
CCc1ccc2[nH]c(=O)c(CN(CCN(C)C)C(=O)Nc3ccccc3)cc2c1	i	0.47
CCN1CCN(C(=O)CN(CC)S(=O)(=O)c2ccc(F)cc2)CC1	i	-0.7

Additional compounds:
SMILES	KCNQ2 inh	KCNQ2 inh baseline
Cc1cccc2cc(C#N)c(SCC(=O)Nc3ccccc3N3CCOCC3)nc12	i	0.08
COc1cccc(NC(=O)c2sc(NC(=O)c3ccncc3)nc2C)c1	i	0.03
CCC(C)NC(=O)c1cc2c(=O)[nH]c3ccc(C)cc3c2s1 (stereo not given)	i	0.98
CC(CCOC1=NS(=O)(=O)c2ccccc21)NC(=O)C(=O)Nc1ccccc1 (stereo not given)	i	-1.2
Cc1cccc2c(SCC(N)=O)nc(-c3ccccc3)nc12	i	0.83
C/C(N)=C(/C#N)C(=O)COC(=O)c1cc(C)n(-c2ccc(F)cc2)c1C	i	1
C=C1CCN(c2ccc(C(=O)NCc3ccc(OC)cc3)cc2[N+](=O)[O-])CC1	i	4.8
COc1ccc(NS(=O)(=O)c2cccc(C(=O)NCC(c3ccco3)N(C)C)c2)cc1 (stereo not given)	i	0.01
Cc1ccc(C(=O)NNC(=O)c2ccc(S(=O)(=O)N3CCOCC3)cc2)cc1	i	1
Cc1cccc(CSc2nnc(-c3ccccn3)n2N)c1	i	0.9
CCCOc1c(Cl)cc(/C=N/O)cc1OCC	i	2.5
Cc1ccc(/C=C2/SC(=S)N(C3CCCCC3)C2=O)o1	i	0.07
COc1ccc(N2CCN(Cc3nc4c(c(=O)[nH]c(=O)n4C)n3CCCc3ccccc3)CC2)cc1	i	-1.9
Cc1cccc(C)c1OCC(=O)OC/C(O)=C(\C#N)c1nc2ccccc2[nH]1	i	-0.14
Cc1ccc(-c2csc(N3CCC[C@@H]3C(=O)NCCn3c(C(F)(F)F)nc4ccccc43)n2)cc1	i	0.59

An excerpt from above in order of their number in KCNQ2 inh baseline, ascending:
SMILES	KCNQ2 inh	KCNQ2 inh baseline
CC(CCOC1=NS(=O)(=O)c2ccccc21)NC(=O)C(=O)Nc1ccccc1 (stereo not given)	i	-1.2
Cc1cccc(C)c1OCC(=O)OC/C(O)=C(\C#N)c1nc2ccccc2[nH]1	i	-0.14
COc1ccc(NS(=O)(=O)c2cccc(C(=O)NCC(c3ccco3)N(C)C)c2)cc1 (stereo not given)	i	0.01
COc1cccc(NC(=O)c2sc(NC(=O)c3ccncc3)nc2C)c1	i	0.03
C/C(N)=C(/C#N)C(=O)COC(=O)c1cc(C)n(-c2ccc(F)cc2)c1C	i	1
C=C1CCN(c2ccc(C(=O)NCc3ccc(OC)cc3)cc2[N+](=O)[O-])CC1	i	4.8

Later entries.
SMILES	KCNQ2 inh	KCNQ2 inh baseline
O=C(NNC(=O)C1CCN(S(=O)(=O)c2ccc(Cl)cc2)CC1)c1ccccc1O	i	-0.56
S=C1N(c2ccccc2)C(c2ccc(Br)cc2)N2CCCN12 (stereo not given)	i	-0.1
CC(C)(C)OC(=O)N1CCC[C@H]1c1nnc(SCc2ccccc2F)o1	i	-1.7
COc1ccc(OCCSc2nnc(-c3ccc(OC)cc3)n2N)cc1	i	-0.03
Cn1ncc(Cl)c1C(=O)Nc1ccncc1	i	-1.5
C=CCn1c(SCn2nnc3ccccc3c2=O)nc2scc(-c3cccs3)c2c1=O	i	0.35
CCN(c1ccccc1)S(=O)(=O)c1cc(NC(=O)COC(=O)C2CC2)ccc1Cl	i	0.27
COC(=O)COc1ccc2cc(-c3ccccc3)c(=O)oc2c1	i	0.06
CCN1C(=O)[C@H]2[C@@H](c3ccc(C)cc3)N3C(=O)N(c4cccc(Cl)c4)C(=O)[C@@]3(CC(C)C)[C@H]2C1=O	i	-0.04
Cn1c(SCC(=O)Nc2ccc(NC(=O)c3cccc(F)c3)cc2)nnc1-c1ccncc1	i	0.12
c1ccc(CCNC2=NCCCS2)cc1	i	-1.5
COCCn1c(=NC(=O)/C=C/c2cccs2)sc2cc(NC(C)=O)ccc21	i	-2
COc1ccc(C2CC(c3ccccc3)=NN2C(=O)COC(=O)c2cc(S(=O)(=O)N3CCOCC3)ccc2Cl)cc1 (stereo not given)	i	0.24
